Source: PubChem BioAssay (Johns Hopkins Ion Channel Center)
KCNQ2 pot = potentiators of rat KCNQ2 potassium channel | O88943 | B-score at 10 µM | AID 2239 | hit rate 0.54% among 310,000 | CHO-K1 KCNQ2, FluxOR thallium flux fluorescence; hits give high values;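 active means fluorescence ratio B-score at least 3 SD of library B-scores, with initial fluorescence B-score within 3 SD, cut at about 5.3 in these data; same plate scores as AID 2156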;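 further: B-score of peak minus minimum over baseline fluorescence ratio after K+ and Tl+ stimulus; positive B-score means potentiation of KCNQ2 with more thallium influx and brighter signal; only the inactives scoring about 0 or higher are listed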
Target sequence (O88943 whole entry, looked up): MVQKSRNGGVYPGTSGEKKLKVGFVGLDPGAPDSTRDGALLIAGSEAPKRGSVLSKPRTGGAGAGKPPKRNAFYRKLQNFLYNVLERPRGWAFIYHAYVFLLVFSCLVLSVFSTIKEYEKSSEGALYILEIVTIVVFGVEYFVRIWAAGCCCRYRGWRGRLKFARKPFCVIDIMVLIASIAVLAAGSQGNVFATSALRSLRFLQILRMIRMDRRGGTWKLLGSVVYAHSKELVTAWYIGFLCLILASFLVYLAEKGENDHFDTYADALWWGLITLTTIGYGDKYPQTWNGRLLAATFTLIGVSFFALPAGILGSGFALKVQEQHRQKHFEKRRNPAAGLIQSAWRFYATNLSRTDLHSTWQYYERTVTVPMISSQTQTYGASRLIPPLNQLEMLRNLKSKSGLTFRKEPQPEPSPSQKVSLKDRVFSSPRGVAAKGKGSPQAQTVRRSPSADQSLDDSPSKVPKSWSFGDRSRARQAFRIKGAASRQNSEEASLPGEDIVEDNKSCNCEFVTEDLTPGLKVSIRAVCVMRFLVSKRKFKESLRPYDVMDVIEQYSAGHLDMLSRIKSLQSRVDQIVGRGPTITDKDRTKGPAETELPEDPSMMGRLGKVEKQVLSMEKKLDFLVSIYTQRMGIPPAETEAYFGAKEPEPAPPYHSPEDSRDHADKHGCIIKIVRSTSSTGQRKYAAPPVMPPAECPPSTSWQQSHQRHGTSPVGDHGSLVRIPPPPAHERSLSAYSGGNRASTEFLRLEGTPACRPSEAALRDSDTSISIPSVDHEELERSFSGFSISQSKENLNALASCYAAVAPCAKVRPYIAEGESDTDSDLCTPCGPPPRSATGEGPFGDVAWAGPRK
KCNQ2 pot baseline = also measured in KCNQ2 pot; calls as there; B-score; compound at 10 µM; measured here: initial fluorescence intensity artifact check;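 brightness before thallium and not channel activity; 0 = typical well and far values either way flag optical interference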
* = called active by the depositor. A portion of the library; count on the stated rates, not on these rows.

KCNQ2 pot | KCNQ2 pot baseline | smiles
0.29 | -1.92 | O=C(COc1ccc(C(=O)c2ccccc2)cc1)Nc1cccnc1
0.01 | 1.56 | CCCCc1ccc(NC(=S)N2CCN(C(=O)OCC)CC2)cc1
1.68 | 0.56 | COc1ccc(NS(=O)(=O)c2ccc(C(=O)OC(C)C(=O)N3CCOCC3)cc2)cc1 (stereo not given)
0.8 | -1.21 | CCC(=O)c1cn(CC(=O)Nc2cccc(C)c2C)c2ccccc12
0.07 | 0.62 | CCOC(=O)C1CCCN(CCC(=O)Nc2cccc(F)c2)C1 (stereo not given)
0.75 | -0.1 | O=C(NCCOc1ccccc1)C1CCC(=O)N(Cc2ccc(Cl)cc2)C1 (stereo not given)
0.11 | 0.33 | CCC(=O)Nc1nnc(CSCc2ccc(F)cc2)s1
1 | 2.34 | O=c1[nH][nH]cc1C=Nc1ccc(Cl)cc1
1.02 | 0.57 | Cc1nc(COC(=O)c2cc(O)c3ccccc3c2O)cs1
0.05 | -2.19 | Cc1ccc(C(=O)NCCONC(=O)c2ccc(C)cc2)cc1
0.57 | 0.23 | CN(C)CCCC1(O)c2ccccc2C=Cc2ccccc21
1.14 | -0.74 | Cc1ccc(C(=O)N/N=C\C2CC=CCC2)cc1[N+](=O)[O-] (stereo not given)
0.09 | 0.22 | C=CCNC(=O)c1onc(CSc2ccc(Cl)cc2)c1C(=O)NCC=C
0.78 | -0.48 | CS(=O)(=O)N(CC(=O)N1CCOCC1)c1ccccc1Br
0.43 | -0.04 | O=[N+]([O-])c1ccccc1/C=N/n1c(C2CCCCC2)n[nH]c1=S
0.97 | 0.33 | NC(=O)C1CCN(C(=O)c2ccccc2SCC(=O)NCC2CCCCC2)CC1
0.01 | -0.14 | COc1ccc(N2CCN(C(=O)c3ccc(S(=O)(=O)N4CCCC4)cc3)CC2)cc1
0.45 | 0 | Cc1nnc(SCC(=O)Nn2cnnc2)s1
0.29 | -0.13 | Cc1ccc(N2CC(O)=C(c3ccccc3)C2=N)cc1
0.2 | -0.11 | Cc1ccsc1C(C(=O)NC(C)(C)C)N(Cc1ccco1)C(=O)c1csnn1 (stereo not given)
0.68 | 1.07 | CC(C)Cc1nc(SCC(=O)Nc2nnc(CC(C)C)s2)n[nH]1
0.89 | 2.13 | Cc1cc(C)cc(NC(=O)C(=O)NCCCN2CCCC2=O)c1
0.55 | 0.09 | CCOc1ccc(CNC(=O)C2CCC(=O)N2C2CCCC2)cc1OC (stereo not given)
0.55 | 0.97 | CCC(C)[C@H](NC(=O)NCc1ccc(Cl)cc1)C(=O)O (stereo not given in full)
0.55 | 0.23 | CN(Cc1nccs1)C(=O)c1ccc2nc(Cc3ccccc3F)oc2c1
1.82 | 0.32 | COc1ccc(CNC(C)C23CC4CC(CC(C4)C2)C3)c(OC)c1OC (stereo not given)
1.08 | 0.47 | COCCCNC(=O)COc1ccc(-c2nccc(-c3ccccn3)n2)cc1
0.45 | -0.41 | NC(=O)C1CCN(C(=O)CN2C(=O)c3ccccc3S2(=O)=O)CC1
0.06 | -1.15 | O=C(CSc1ccc([N+](=O)[O-])cn1)Nc1ccccc1N1CCOCC1
0.81 | 1.53 | COc1cccc(CNC(=O)Cc2nc3nc(C)cc(C)n3n2)c1
1.02 | 0.22 | O=[N+]([O-])c1ccc(N2CCN(c3ccc(Cl)nn3)CC2)cc1NC1CC1
0.27 | -0.34 | COc1ccc(Cl)cc1-n1c(C)cc(C(=O)O)c1C
0.91 | 0.81 | CCn1c(SCC(=O)N2CCc3ccccc32)nnc1-c1c[nH]c2ccccc12
1.09 | 0.01 | CC1CC(C)CN(S(=O)(=O)c2cccc3cccnc23)C1 (stereo not given)
4.25 | 0.49 | COc1ccccc1S(=O)(=O)Cc1ccc(C(=O)N2CCOCC2)o1
1.2 | -3.23 | OCCN1C2=NCCCN2c2ccccc21
0.02 | -1.76 | C[C@H](NC(=O)c1nc[nH]c1C(=O)NCc1ccc(CNC(=O)OC(C)(C)C)cc1)C(=O)OC(C)(C)C
2.14 | 0.96 | Cn1c(=O)nc2n(Cc3ccccc3)c3ccccc3cc-2c1=O
1.45 | -1.9 | O=C(COc1ccc2cc(-c3ccccc3)c(=O)oc2c1)NCC1CCC(C(=O)O)CC1 (stereo not given)
1.76 | 0.02 | CCOc1ccc2oc(-c3ccccc3)c(C(=O)O)c2c1

Some of these compounds in order of the KCNQ2 pot value, descending:
Molecule,KCNQ2 pot,KCNQ2 pot baseline
COc1ccccc1S(=O)(=O)Cc1ccc(C(=O)N2CCOCC2)o1,4.25,0.49
CCOc1ccc2oc(-c3ccccc3)c(C(=O)O)c2c1,1.76,0.02
O=[N+]([O-])c1ccc(N2CCN(c3ccc(Cl)nn3)CC2)cc1NC1CC1,1.02,0.22
CCn1c(SCC(=O)N2CCc3ccccc32)nnc1-c1c[nH]c2ccccc12,0.91,0.81
COc1ccc(Cl)cc1-n1c(C)cc(C(=O)O)c1C,0.27,-0.34

Later entries.
KCNQ2 pot | KCNQ2 pot baseline | smiles
0.53 | -0.3 | Cc1ccc(C)c(OCCOCCN2CCOCC2)c1
2.15 | 0 | CC(Nc1c([N+](=O)[O-])c(=O)oc2ccccc12)c1ccccc1 (stereo not given)
0.03 | 0.69 | CC(C)(O)C#Cc1ccc(C(=O)N2CCC(CCC(=O)NC3CC3)CC2)cc1
1.01 | 0.11 | CN1CCN(c2nnc(-c3ccccc3)c(-c3ccccc3)n2)CC1
0.06 | -1.6 | C=CCn1c(SCC(=O)NCc2ccccc2)nnc1C1CCCCC1
0.59 | 0.1 | CC(C)Cc1nnc(NC(=O)CCC(=O)Nc2ccc(F)cc2)s1
1.94 | -1.1 | O=C(N/N=C\c1cn[nH]c1-c1ccccc1)c1cccs1
0.16 | 0.8 | N#Cc1ccc(COC(=O)Cn2nnc(-c3ccccc3)n2)cc1
0.05 | 1.03 | Cc1ccc(S(=O)(=O)NCCn2nc(C)nc2C)cc1
2.59 | 0.06 | Cc1csc(NC(=O)CN2C(=O)c3ccccc3S2(=O)=O)n1
1.09 | -1.67 | COC(=O)c1cccc(NC(=O)/C=C/c2ccc([N+](=O)[O-])cc2)c1
0.23 | -0.86 | Cc1ccc(-n2c(C)nn(CCOc3ccccc3)c2=O)cc1
0.76 | -0.16 | Cc1ccc(S(=O)(=O)Nc2nc(C)c(C(=O)N/N=C/c3ccccc3)s2)cc1
0.8 | -1.8 | CC(C)C(=O)NCCc1nc2ccccc2n1C
0.72 | 0.01 | COc1cccc2cc(C(N)=O)/c(=N\NC(=O)c3ccccc3)oc12
1.16 | 0.19 | CCOC(=O)N1CCN(C(=O)CCS(=O)(=O)c2ccc3c(c2)CC(C)N3C(=O)CC)CC1 (stereo not given)
0.19 | 0.78 | CCc1noc(C)c1C(=O)Nc1nc(-c2cc(OC)ccc2OC)cs1
1.61 | 0.11 | CNS(=O)(=O)c1ccc(NC(=O)c2cncc(Br)c2)cc1
0.66 | 1.68 | C=CCNC(=O)c1ccccc1Cl
1.09 | 1.06 | C=CCNC(=O)CSc1nnc(-c2ccncc2)n1CCc1ccccc1

Complete entries from above. Order of screens: KCNQ2 pot | KCNQ2 pot baseline
Cc1ccc(S(=O)(=O)Nc2nc(C)c(C(=O)N/N=C/c3ccccc3)s2)cc1 is entered as 0.76 | -0.16
CCOC(=O)N1CCN(C(=O)CCS(=O)(=O)c2ccc3c(c2)CC(C)N3C(=O)CC)CC1 (stereo not given) is entered as 1.16 | 0.19

Further results
KCNQ2 pot | KCNQ2 pot baseline | smiles
9.87* | 0.08* | CC(C)OC(=O)c1cc2c(ccn2C)n1CC(=O)N1CCC(Cc2ccccc2)CC1
0.52 | -2.13 | S=C1N(c2ccccc2)C(c2ccccc2)N2CCCN12 (stereo not given)
0.07 | 1.08 | Cc1csc(NC(=O)CNC(=O)OCc2ccccc2)n1
0.89 | 0.36 | COc1ccc(/C=N/N2CCN(C)CC2)cc1OC
1.05 | -3.15 | COc1cc(OC)cc(C(=O)NC2CC(C)(C)NC(C)(C)C2)c1
0.23 | 0.42 | COc1ccccc1C(=O)NCCC(=O)NCC(c1ccccc1OC)N1CCCC1 (stereo not given)
0.78 | 1.03 | CC1CN(c2nc3ccccn3c(=O)c2/C=C(\C#N)S(=O)(=O)c2ccccc2)CC(C)O1 (stereo not given)
0.76 | 1.95 | CCc1cc(CNC(=O)C2CCC(=O)N(Cc3cccc(F)c3)C2)on1 (stereo not given)
0.39 | -0.04 | CC1(C)C(N(O)C(=O)Nc2ccc(Cl)cc2)N(c2ccc(Cl)cc2)C(=O)N1CC(=O)NN (stereo not given)
0.61 | -1.16 | Cc1ccc(C(c2nnnn2CC2CCCO2)N2CCN(Cc3ccccc3)CC2)cc1 (stereo not given)
0.74 | -0.12 | O=C(OCC(=O)N1CCCC1)c1cc(Cl)ccc1[N+](=O)[O-]
0.87 | -0.35 | O=C(Nc1cccc(-c2csc(Nc3ccc(Cl)cc3)n2)c1)c1cc([N+](=O)[O-])cc(C(F)(F)F)c1
0.34 | -0.08 | O=C(/C=C/c1ccco1)Nc1ccccc1C(=O)Nc1cccc(C(=O)O)c1
0.27 | 0.01 | CN=C(Nc1ccc(C(=O)OC)s1)c1ccc(Cl)cc1
0.6 | 0.2 | COc1ccc(CC(NC(C)=O)C(=O)NC2CCN(C(=O)Nc3ccc(C#N)cc3)CC2)cc1OC (stereo not given)
0.02 | -1.26 | CCOC(=O)CNC(=O)CCNS(=O)(=O)c1ccc2c(c1)c(=O)n(C)c(=O)n2C
0.66 | 0.94 | Cc1cc(NC(=O)/C=C/C(=O)N(CC(=O)NC2CCCC2)c2cccc3ccccc23)no1
0.5 | 1.52 | CCCCC(CC)C(=O)Nc1ccccc1C#N (stereo not given)
0.86 | -0.21 | O=S(=O)(c1ccc(Cl)cc1)N1CCN(C(=S)Nc2ccc(F)c(Cl)c2)CC1
0.88 | 0.51 | Cc1ccccc1NC(=O)c1cc(S(=O)(=O)N2CCOCC2)cs1
2.56 | 0.17 | COc1ccc(OC)c(NC(=O)Nc2ccc(Cl)cc2)c1
0.01 | -0.13 | COc1ccc(CNC(=O)c2cnc3n(c2=O)CCS3)cc1
0.64 | -0.07 | Cc1ccc(C2=NN(C)c3nc4ccccc4n3C2)cc1
0.13 | -1.3 | Cc1ccc2sc(-c3ccc(NC(=O)CCN4C(=O)c5ccccc5C4=O)cc3)nc2c1
0.1 | -0.26 | COc1ccc(C(=O)/C=C/Nc2cccc(C)n2)cc1OC
0.35 | -0.84 | CCCCNc1cc(=O)n(C)c(=O)n1C
0.97 | 0.2 | NC1=Nc2cccc3cccc1c23
0.37 | -0.03 | CC(=O)c1ccc(NC(=O)CCNS(=O)(=O)c2cc(Br)cnc2N)cc1
0.11 | 0.52 | O=C(CCC(=O)Nc1ccccc1)NNC(=O)C(c1ccccc1)c1ccccc1
0.99 | -9.04 | O=C(CNCc1ccccc1Cl)NCc1ccco1
1 | 2.66 | CC(C)OC(=O)Cn1c(=O)sc2ccccc21
0.35 | -0.74 | CCC(C)NC(=O)c1nn(C)c(=O)c2ccccc12 (stereo not given)
0.11 | -0.61 | O=c1[nH]c(Nc2ccc3c(c2)OCCO3)nnc1Cc1ccc(Cl)cc1
0.56 | 2.14 | CC(C)CCn1cnc2c1c(=O)[nH]c(=O)n2Cc1ccccc1
1.2 | -0.06 | CCN1CCN(CCCNC(=O)c2cn(CCOC)c(=O)c3c2c2ccccc2n3C)CC1
2.15 | 0.02 | CCN(CC)CCN1C(=O)C(O)=C(C(=O)c2cccs2)C1c1ccc(C)o1 (stereo not given)
0.96 | 1.25 | Cc1ccccc1NC(=O)c1cccc(NC(=O)c2ccccc2C(=O)O)c1
1.66 | -1.55 | Cc1cc(C)c[n+](-c2[nH]c(=O)sc2/C=N/N=C(\[O-])c2cccnc2)c1
1.3 | 0.9 | Cc1ccc(C)c(N2C(=O)CC(Cc3ccccc3)C2=O)c1 (stereo not given)
2.1 | -1.2 | Cc1ccc(S(=O)(=O)/C(C#N)=C/c2c(N3CCOCC3)nc3ccccn3c2=O)cc1
6.77* | 1.33* | COCCC(=O)N1CCCC(C(=O)c2ccc(C(F)(F)F)cc2)C1 (stereo not given)
1.84 | -0.01 | COc1ccccc1Oc1ccc(N2CC(C(=O)OCC(=O)c3ccccc3)CC2=O)cc1 (stereo not given)
2.36 | 0.65 | COc1ccc(OC)c(NC(=O)CCC(=O)Nc2nnc(C(F)(F)F)s2)c1
0.56 | -0.19 | CC(NC(=O)COc1ccc(Br)cc1)C(=O)O (stereo not given)
0.65 | 0.11 | Cc1ccc(S(=O)(=O)NCC(=O)OCC(=O)c2cccs2)cc1
1.42 | -0.23 | CC(=O)NCCC(=O)Nc1nc(-c2ccc3ccccc3c2)cs1
0.69 | 0.21 | Cc1ccc(C(=O)NNC(=O)Cc2ccccc2)cc1
0.54 | -2.92 | FC(F)(F)c1cc(-c2ccccc2)nc(NCc2cccs2)n1
0.44 | 2.72 | COc1ccccc1CC(=O)NC1CC(C)(C)NC(C)(C)C1
11.6* | -0.14* | CC(=O)C1=C(C)NC(SCC(=O)c2ccc(Cl)cc2)=C(C#N)C1c1ccco1 (stereo not given)

The list continues.
KCNQ2 pot | KCNQ2 pot baseline | smiles
0.41 | -0.32 | CCOC(=O)c1cnc(SCC(=O)N2CCN(c3ccccc3)CC2)nc1N
0.01 | -0.47 | CC(=O)Nc1ccc(S(=O)(=O)NC(C)CCc2ccccc2)cc1 (stereo not given)
0.06 | -0.65 | CCc1ccccc1NC(=O)c1nnn(CC(=O)Nc2ccccc2C)c1N
0.73 | -0.21 | Cc1nn(C(=O)CN2C(=O)c3ccccc3C2=O)c(C)c1Br
0.92 | 1.35 | CCNC(=S)N1N=C2c3ccccc3CCC2C1c1ccc(F)cc1 (stereo not given)
1.99 | -3.11 | CC(OC(=O)c1cc(Cl)ccc1[N+](=O)[O-])C(=O)NC(C)c1ccc(F)cc1 (stereo not given)
1.57 | -1.82 | COC(C(=O)Nc1ccnn1C1CCN(Cc2ccc(Cl)s2)CC1)c1ccccc1 (stereo not given)
0.51 | -1.67 | CC(C)(C)C(=O)NC(=S)NNC(=O)c1ccncc1
